# V. cholerae QS – Vibrio cholerae quorum sensing activators, luminescence (AID 686977); V. cholerae quorum sensing reporter, luminescence, 6 h; higher luminescence means a stronger effect; most inactives read 0; one-dose luminescence at 50 µM unless noted; EC50 in µM for titrated hits; 9,400 tested, under 10 active;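 active means light above mean plus 3 SD and confirmed in a dose series; inconclusive means above that limit without a clear retest; inactive means below it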;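 further: raw light counts without normalisation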
# Starred values were filed as active, the others as inactive; ? = inconclusive; [ ] = remark or other dose.
# A first look, two compounds:
no.	SMILES	V. cholerae QS
1	CCOc1ccc(C(=O)N/N=C/c2ccc(-c3ccc(S(=O)(=O)Nc4ncccn4)cc3)o2)cc1	0
2	CCC1CCc2c(sc(NC(=O)CSc3nc(-c4ccco4)cc(C(F)(F)F)n3)c2C#N)C1 (stereo not drawn)	0

# The listing (from the top)
no.	SMILES	V. cholerae QS
1	CCOc1ccc(C(=O)N/N=C/c2ccc(-c3ccc(S(=O)(=O)Nc4ncccn4)cc3)o2)cc1	0
2	CCC1CCc2c(sc(NC(=O)CSc3nc(-c4ccco4)cc(C(F)(F)F)n3)c2C#N)C1 (stereo not drawn)	0
3	COC(=O)c1c(C(=O)OC)n(CCCN)c2ccc(C)cc12	0
4	COc1ccc(NC(=O)[C@H](CCS(C)(=O)=O)N2Cc3ccccc3C2=O)c(OC)c1	40
5	Cn1c(=O)c2c(ncn2CC(O)CO)n(C)c1=O (stereo not drawn)	0[10 µg/mL]
6	C=CCNC(=S)NNC(=O)c1ccc(OCC(C)C)cc1	40
7	CC1=CCC2C(=O)N(c3ccc(C)c(Br)c3)C(=O)C2C1 (stereo not drawn)	40
8	O=C1NCCCC1C(=O)N/N=C/c1ccccc1 (stereo not drawn)	40
9	CC(c1ccco1)N(Cc1ccco1)C(=O)Nc1ccccc1 (stereo not drawn)	0
10	CC(NC(=O)NC12CC3CC(CC(C3)C1)C2)C1CCCO1 (stereo not drawn)	?
11	COc1ccccc1CNC(=O)CCS(=O)(=O)c1ccc2c(c1)CCCN2C(C)=O	0
12	CN(C)C(=O)c1snnc1-c1ccccc1	40
13	COc1cc(NS(=O)(=O)c2ccc3c(c2)oc(=O)n3C)cc(OC)c1OC	0
14	CCOC(=O)C1CCCN(C(=O)Cn2cccc2C(=O)c2ccccc2)C1 (stereo not drawn)	40
15	Cc1nc2ccc(N)cc2s1	0
16	Clc1ccc2nc(C3CCN(Cc4ccccc4)CC3)[nH]c2c1	40
17	O=C(COc1ccccc1)Nc1nnc(-c2ccc(Cl)s2)o1	0
18	CC(CN(C)C)CN1c2ccccc2Sc2ccccc21 (stereo not drawn)	0[10 µg/mL]
19	CCn1c(CNC(=O)C(C)(C)C)nc2ccccc21	0
20	CCOC(=O)CSc1nc2ccccc2c(=O)[nH]1	0
21	Cc1ccc(C)c(CN2C(=O)C3CCCN3c3ccc(C#N)cc32)c1 (stereo not drawn)	40
22	CC(C)(Sc1cc(C(C)(C)C)c(O)c(C(C)(C)C)c1)Sc1cc(C(C)(C)C)c(O)c(C(C)(C)C)c1	0[10 µg/mL]
23	COc1cc(CNC2CCCCCC2)cc(OC)c1	0
24	CC(C)=CC(=O)NCc1c(Cl)cccc1-n1cccc1	0
25	COc1ccc(C2=NOC(C(=O)Nc3cc(C)on3)C2)cc1 (stereo not drawn)	0
26	CC(C)N(Cc1nc(-c2ccccc2)no1)C(=O)c1ccc(Cl)cc1	0
27	COc1cc(/C=N/NC(N)=O)cc(Br)c1OCc1ccc(C)cc1	0
28	COc1ccccc1Nc1nc(C)cs1	0
29	COc1ccc(CCNC(=O)Cn2cnc3c(cnn3-c3ccccc3Cl)c2=O)cc1OC	320
30	O=C(C1CCCCC1)N1CC(=O)N2CCc3ccccc3C2C1 (stereo not drawn)	?

no.	SMILES	V. cholerae QS
31	CC(OC(=O)c1cc2sccc2n1C)C(=O)NCc1ccco1 (stereo not drawn)	0
32	CCOc1ccccc1NC1=C(Cl)C(=O)N(Cc2ccccc2)C1=O	0
33	CCOC(=O)c1sc(-c2ccccc2)cc1N	0
34	CCOC(=O)c1[nH]c(C)c(C(=O)NCCN2CCOCC2)c1C	0
35	COc1cccc(Cn2nnc(C(=O)Nc3cc(Cl)ccc3OC)c2N)c1	?
36	Cc1ccc(C(=O)n2cnnc2N)cc1C	40
37	CCC(C)N1CCC2(CC1)N=c1c(c3c4c5c(C)c(O)c3c(O)c1=NC(=O)/C(C)=C/C=C/[C@H](C)[C@H](O)[C@@H](C)[C@@H](O)[C@@H](C)[C@H](OC(C)=O)[C@H](C)[C@@H](OC)/C=C/O[C@@](C)(O5)C4=O)N2 (stereo partly drawn)	40[10 µg/mL]
38	Cc1ccccc1NC1c2ccccc2C(=O)N1Cc1ccco1 (stereo not drawn)	0
39	CC(=O)c1c[nH]c2ccc(C)cc2c1=O	0
40	NC(=O)NC1NC(=O)NC1=O (stereo not drawn)	0[10 µg/mL]
41	C[N+]1=Cc2cc3c(cc2CC1)OCO3	0[10 µg/mL]
42	O=C1c2ccccc2C(=O)N1CCCc1nc2ccccc2c(=O)n1Cc1ccco1	640
43	NS(=O)(=O)c1ccc(CCNC(=O)C2CCCN(S(=O)(=O)c3cccnc3)C2)cc1 (stereo not drawn)	40
44	NCC[C@H](O)C(=O)N[C@@H]1C[C@H](N)[C@@H](O[C@H]2O[C@H](CN)[C@@H](O)[C@H](O)[C@H]2O)[C@H](O)[C@H]1O[C@H]1O[C@H](CO)[C@@H](O)[C@H](N)[C@H]1O	40[10 µg/mL]
45	O=C(Nc1ccccc1C(F)(F)F)N1CCN(c2ccc3nncn3n2)CC1	40
46	COc1ccc(N2CCN(C(=O)CCCN3C(=O)c4cccc5cccc(c45)C3=O)CC2)cc1	40
47	CC(C)c1cc(N2CCN(C(=O)c3ccco3)CC2)n2c(nc3ccccc32)c1C#N	0
48	COc1ccc(NC(=O)Cn2nc3n(c2=S)CCC3)cc1	0
49	OCCCc1nc2n(n1)C(c1cccs1)C=C(c1ccc(Br)cc1)N2 (stereo not drawn)	0
50	Cc1ncc(CO)c(CO)c1O	0[10 µg/mL]
51	O=C(CSc1ncnc2c1oc1ccccc12)NCc1ccc(F)cc1	200
52	CC(=O)c1sc(NC(=O)c2ccco2)nc1-c1ccccc1	40
53	COc1ccc(-n2c(Cc3cccn3C)nnc2SCC(=O)Nc2ccc3c(c2)OCCO3)cc1	40
54	O=C(N/N=C/c1ccc([N+](=O)[O-])o1)c1ccc(O)cc1	40[10 µg/mL]
55	C[C@H]1[C@H]2CC[C@H]3[C@@H]4CC=C5C[C@@H](N(C)C)CC[C@]5(C)[C@H]4CC[C@]23CN1C	40[10 µg/mL]
56	CNC(=O)C1CC(=O)N(Cc2ccc3c(c2)OCO3)C(=Nc2ccc(F)cc2)S1 (stereo not drawn)	0
57	CCOC(=O)N1CCN(C(=O)CS(=O)(=O)c2cn(Cc3ccccc3Cl)c3ccccc23)CC1	0
58	COc1ccc(CCNC(=O)COc2nsnc2N2CCOCC2)cc1OC	40
59	CN(C)C(=O)C12CCC(C)(c3nc4ccccc4nc31)C2(C)C (stereo not drawn)	0
60	c1ccc2[nH]c(CN3CCOCC3)nc2c1	200

no.	SMILES	V. cholerae QS
61	CCn1c(SCC(=O)Nc2nccs2)nnc1-c1ccncc1	0
62	CCn1c(=O)c(C(=O)NCCN2CCCCC2)c(O)c2ccccc21	40
63	Clc1ccc(C(Cn2ccnc2)OCc2c(Cl)cccc2Cl)c(Cl)c1 (stereo not drawn)	0[10 µg/mL]
64	Cc1cc2oc(=O)cc(CN3CCOCC3)c2cc1C	0
65	COc1ccc2nc(NC(=O)CSc3nc(C)cc(=O)[nH]3)sc2c1	200
66	CC(=O)O[C@]1(C(C)=O)CC[C@H]2[C@@H]3C=C(C)C4=CC(=O)CC[C@@H]4[C@H]3CC[C@@]21C	0[10 µg/mL]
67	O=C(CCCc1nc2ccccc2s1)Nc1nccs1	0
68	CCn1cc(C2N3CC4(C)CN2CC(C)(C3)C4=O)c2ccccc21 (stereo not drawn)	40
69	CCCn1cnc2cc(NCc3ccccn3)ccc21	40
70	CC(C(=O)O)c1cccc(Oc2ccccc2)c1 (stereo not drawn)	0[10 µg/mL]
71	CC(C)Cn1c(SC(C)C(=O)Nc2ccc3c(c2)OCCO3)nc2ccccc2c1=O (stereo not drawn)	40
72	O=C(NCc1cccnc1)C1c2ccccc2C(=O)N1Cc1ccccc1 (stereo not drawn)	0
73	COc1ccccc1N1CCN(C(=O)Oc2ccccc2)CC1	0
74	CCOC(=O)N1CCC(NC(=O)Cn2cccc2C(=O)c2ccccc2C)CC1	40
75	CCN1CC2=C(OC(N)=C(C#N)C2c2ccccc2)/C(=C\c2ccccc2)C1 (stereo not drawn)	0
76	CCOc1ccc(-c2nc(CSc3nnc(N)s3)cs2)cc1	0
77	COc1ccc(/C(O)=C(\C#N)c2nc3ccccc3n2C)cc1OC	40
78	NCc1ccc(S(N)(=O)=O)cc1	40[10 µg/mL]
79	COc1c2occc2c(OC)c2c(=O)cc(C)oc12	0[10 µg/mL]
80	Nc1cc2c([N+](=O)[O-])cccc2o1	0
81	c1ccc(CCn2c(C3CC3)nc3ccccc32)cc1	0
82	Cc1cccc(NC(=O)c2cnc3ccccn3c2=O)c1	0
83	CC1CCc2nc3ccc(S(=O)(=O)N4CCC(C(=O)N5CCCCC5)CC4)cc3c(C(=O)O)c2C1 (stereo not drawn)	?
84	O=C(O)c1ccccc1OP(=O)(O)O	0[10 µg/mL]
85	COc1ccc(CC2c3cc(OC)c(OC)cc3CC[N+]2(C)CCC(=O)OCCCCCOC(=O)CC[N+]2(C)CCc3cc(OC)c(OC)cc3C2Cc2ccc(OC)c(OC)c2)cc1OC (stereo not drawn)	0[10 µg/mL]
86	COc1cccc(S(=O)(=O)Nc2ccc(C(=O)NCc3ccco3)cc2)c1	40
87	COCCCNC(=O)c1ccc(CS(=O)(=O)Cc2cccc(C)c2)o1	0
88	CC(C)COCC(CN(Cc1ccccc1)c1ccccc1)N1CCCC1 (stereo not drawn)	40[10 µg/mL]
89	COC(=O)c1ccc(CSc2ccc3nnc(-c4cccc(F)c4)n3n2)o1	0
90	COc1ccc(-c2cn3c(C)c(C(=O)Nc4ccncc4)sc3n2)cc1	0

# Reformatted: 4 of the compounds above.
(61) CCn1c(SCC(=O)Nc2nccs2)nnc1-c1ccncc1
  V. cholerae QS: 0

(62) CCn1c(=O)c(C(=O)NCCN2CCCCC2)c(O)c2ccccc21
  V. cholerae QS: 40

(63) Clc1ccc(C(Cn2ccnc2)OCc2c(Cl)cccc2Cl)c(Cl)c1 (stereo not drawn)
  V. cholerae QS: 0[10 µg/mL]

(64) Cc1cc2oc(=O)cc(CN3CCOCC3)c2cc1C
  V. cholerae QS: 0

# Next compounds:
no.	SMILES	V. cholerae QS
91	N#CCCN1CCN(C(=S)c2ccc(-c3ccc(Cl)c(Cl)c3)o2)CC1	0
92	O=C(Cn1nc(Cc2cccnc2)c2ccccc2c1=O)N1CCN(c2ccccn2)CC1	0
93	Cc1[nH]c2c(C)cccc2c(=O)c1Br	40
94	O=c1n(CCCN2CCN(c3cccc(Cl)c3)CC2)nc2ccccn12	0[10 µg/mL]
95	C=CCn1c(-c2ccc(N)cc2)nc2ccccc21	0
96	Cc1c(Cc2ccccc2)sc(N)c1C(N)=O	0
97	CSc1nc(-c2ccccc2)nn1S(=O)(=O)c1ccc(Cl)cc1	40
98	CC(C)c1cccc(C(C)C)c1O	0[10 µg/mL]
99	CCCCN(C)CCNC(=O)Cn1ncc2c(=O)oc3ccc(C)cc3c21	0
100	c1ccc(COc2ccc(OCCCNC3CCCC3)cc2)cc1	40
101	CS(=O)(=O)N(CC(=O)NC1CCCCC1)Cc1ccc(Cl)cc1	0
102	CC(C)C(=O)N=c1sc2cc(F)cc(F)c2n1C	0
103	CCOC(=O)C(CCCOc1ccc(C)cc1)C(=O)OCC	0
104	CCN=c1sc2ccccc2n1CC(O)COc1ccccc1 (stereo not drawn)	40
105	Cc1cc(C)c2c(n1)SCC(=O)N2CC(=O)NCCC1=CCCCC1	0
106	COCC(=O)NCCc1nc(-c2ccccc2)cs1	0
107	CC(C)(C)c1ccc(-c2nnc(SCCN3C(=O)c4ccccc4C3=O)o2)cc1	40
108	Cc1ccc(CN2C(=O)CCC2C(=O)NCCCN2CCC(C)CC2)cc1 (stereo not drawn)	240
109	c1ccc2c(c1)CCN(c1ncnc3nc[nH]c13)C2	0
110	COC(=O)c1ccc(Cn2c(C)cc(C)[n+]2C)o1	0
111	Cc1ccc(C2=[N+]([O-])C(C)(C)CC2)cc1	0
112	COc1ccc(C(=O)CCC(=O)N2CCN(c3ccc(N4CCOCC4)nn3)CC2)cc1	0
113	CNC(C)(C)Cc1ccccc1	0[10 µg/mL]
114	O=C(COc1ccc(Cl)cc1)N1CCN(Cc2ccc3c(c2)OCO3)CC1	0[10 µg/mL]
115	Cc1cc(C(=O)c2ccccc2)nc2ccccc12	40
116	COC(=O)C(CCSC)NC(=O)Cn1ncc2c(=O)oc3ccccc3c21 (stereo not drawn)	0
117	Nc1nc2c(ncn2COCCO)c(=O)[nH]1	0[10 µg/mL]
118	Cc1ccc(CN2C(=O)CCC2C(=O)NC2CCCC2)cc1 (stereo not drawn)	0
119	O=c1c2ccccc2nnn1Cc1nnc(-c2ccccc2Br)o1	40
120	CC(C)C(NS(=O)(=O)c1cccs1)C(=O)NCc1ccc2c(c1)OCO2 (stereo not drawn)	0

no.	SMILES	V. cholerae QS
121	O=C(CN(Cc1ccc2c(c1)OCO2)C(=O)CNS(=O)(=O)c1ccccc1)NCc1ccco1	0
122	CC(C)CCNC(=O)c1ccc2nc[nH]c2c1	0
123	CCOc1ccc(-c2nc(N)ncc2-c2ccccc2)c(O)c1	0
124	CC(C)(C)N1CC2([N+](=O)[O-])CN(C(C)(C)C)CC([N+](=O)[O-])(C1)C2	40
125	COC(=O)c1cc(S(=O)(=O)n2nc(C)c(Br)c2C)c(Cl)cc1Cl	0
126	COc1cc2[nH]c(=O)n(CCCCCC(=O)NCCCN3CCC(C)CC3)c(=O)c2cc1OC	0
127	COc1cccc(-c2cc(C(=O)Nc3c(C)n(C)n(-c4ccccc4)c3=O)no2)c1	0
128	CCCCOCCCNC(=O)c1cccs1	0
129	CCN(CC)C(=O)N[C@H]1C[C@@H]2c3cccc4[nH]cc(c34)C[C@H]2N(C)C1	40[10 µg/mL]
130	COCCOC(=O)c1c(N)n(Cc2ccccc2)c2nc3ccccc3nc12	0
131	CN(C)CCCN=Cc1c(O)n(Cc2ccccc2)c(=O)c2ccccc12	40
132	O=C(CSc1nc2c([nH]c3ccccc32)c(=O)n1-c1cccc(Cl)c1)N1CCOCC1	40
133	O=C(NCCc1ccccc1)C1CCN(S(=O)(=O)c2cccnc2)CC1	0

# Compound activity (PubChem BioAssay)

# A portion of the library; count on the stated rates, not on these rows.
